2A Renilla: FMDV 2A StopGo reporter, Renilla signal; HEK cells with a luciferase reporter of 2A StopGo recoding; Potency, µM (doses to about 57.5 µM), for the others: top-dose signal change, negative = less light; actives 0.32% (n = 120,000); AID 1745857; active means well fitted falling curve with a large enough effect; inconclusive means small, poorly fitted or top-dose-only effect; inactive means no such curve, though single readings can be large or run the other way; further: nearly all actives have a fitted effect of over 55% in size; overnight with compound
2A firefly: FMDV 2A StopGo reporter, firefly signal; HEK cells with a luciferase reporter of 2A StopGo recoding; Potency, µM (titrated, usually from 57.5 µM), for the others: top-dose signal change, negative = less light; AID 1745856; actives 0.23% (n = 120,000); active = well fitted falling curve with a large enough effect; inconclusive = small, poorly fitted or top-dose-only effect; inactive = no such curve, though single readings can be large or run the other way; further: nearly all actives have a fitted effect of over 60% in size; overnight with compound
* marks the source's active call; other numbers are inactive results; ? = inconclusive; & = joins results of further samples; [ ] = another dose, or the depositor's remark. On the % scale 0 is the no-effect control and ±100 the full control effect; potency means the concentration at half of the fitted maximal effect.

SMILES	2A Renilla	2A firefly
Cc1cc(C)cc(NC(=S)NNC=O)c1	11%	14%
CCOc1ccc(NC(=O)C(=O)NCCc2csc3nc(-c4ccccc4F)nn23)cc1	-16%	-18%
CCc1ccc(-c2cc(C(F)(F)F)n3nc(C(=O)NCc4cnn(C)c4C)cc3n2)s1	66%[activator]	9%
CC(C)(Oc1ccc(F)cc1F)C(=O)Nc1cc(C(C)(C)C)on1	-1%	7%
Cc1oc2c(cc(NS(=O)(=O)c3ccc(F)cc3)c3ccccc32)c1C(=O)OCc1ccccc1	-9%	-10%
CCOC(CNC(=O)CS(=O)Cc1nc(-c2ccc(Cl)cc2)oc1C)OCC (stereo unspecified)	6%	15%
O=C(OCCOc1ccc(F)cc1)c1ccc2nccnc2c1	-7%	74%[activator]
CC(C)(O)C(Cl)(Cl)Cl	4%	-11%[11.5 µM]
Cc1ccc(Cl)c(NC(=O)NCc2nc(-c3cccc(Cl)c3)oc2C)c1	4%	14%
CC1CCCN(C2CCN(Cc3ccc(Cl)cc3)CC2)C1 (stereo unspecified)	-13%	-15%
Cc1ccc(CNC(=O)c2cc(S(=O)(=O)N3CCCCC3)cn2C)cc1	22%	-3%
Cc1cccc(N2CCN(C(=O)c3cn(C4CCCCC4)c(=O)c4c3c3ccccc3n4C)CC2)c1C	-6%	2%

Exported as comma-separated lines: part of the list above.
canonical_smiles,2A Renilla,2A firefly
Cc1oc2c(cc(NS(=O)(=O)c3ccc(F)cc3)c3ccccc32)c1C(=O)OCc1ccccc1,-9%,-10%
CCOC(CNC(=O)CS(=O)Cc1nc(-c2ccc(Cl)cc2)oc1C)OCC (stereo unspecified),6%,15%
O=C(OCCOc1ccc(F)cc1)c1ccc2nccnc2c1,-7%,74%[activator]

Later entries.
SMILES	2A Renilla	2A firefly
O=C(NCc1ccc(Cl)cc1)C(=O)Nc1cccc(O)c1	15%	104%[activator]
COc1ccc(NC(=O)NC(C(=O)N2CCc3ccccc32)C(C)C)cc1OC (stereo unspecified)	-6%	2%
Cc1ncsc1C(=O)N(Cc1cccs1)C1CC1	34%[activator]	11%
CCOc1ccccc1N(C)C(=O)Cn1nc(Cc2cccnc2)c2ccccc2c1=O	-1%	-21%
CN(C)c1cc(CNC(=O)/C=C/c2ccc(F)cc2)ccn1	-11%	5%
CCCCC(=O)Nc1cccc(NC(=O)c2cccc3c(Br)cccc23)c1	5%	6%
Cc1ccc(C)c(CSc2nc3c([nH]c4ccccc43)c(=O)n2C)c1	-14%	-21%
Cc1cccc(-n2ncc3c(NC4CCCC4)ncnc32)c1	-15%&-20%	144%&186%[activator]
COc1cc(C)cc2oc(=O)c(CC(=O)NCc3ccc(F)cc3)c(C)c12	48%[activator]	0%
CC(C)C1CCC(C(=O)N[C@H](Cc2ccccc2)C(=O)O)CC1 (stereo partly specified)	5%&-8%	17%&-11%
Cc1ccc(S(=O)(=O)Cc2ccc(C(=O)O)cc2)cc1	1%	7%
Clc1ccccc1CNc1ncnc2c1nc1n2CCCC1	?	?
CCCS(=O)(=O)N1CC(=O)N(c2ccc(Cl)cc2C)C(C)(C(=O)NC2CCCC2)C1 (stereo unspecified)	-12%	0%
CCCOc1cccc(C(=O)N2CCCCC2CCN2CCCCC2)c1 (stereo unspecified)	-5%	-13%
O=C(CCc1ccccc1F)NCc1nc2ccccc2s1	69%[activator]	98%[activator]
C=C(C)Cn1c(=O)c2c(nc3n2CCN3c2ccc(F)cc2)n(C)c1=O	-2%	5%
COc1ccc(NC(=O)c2nc3ccccc3nc2N2CCOCC2)c(OC)c1	17%	11%
Cc1ccccc1C1CC(=O)N2CN(Cc3ccccc3)CSC2=C1C#N (stereo unspecified)	24%	16%
COCCn1c(SCC(=O)c2ccccc2OC)nnc1-c1ccc(Cl)cc1	208%[activator]	24%
Cc1ccccc1Nc1ncnc2c1c(-c1ccccc1)cn2-c1ccc(F)cc1	?	?
COc1ccc(NC(=O)NCCC(=O)N(C)Cc2ccc(Cl)c(Cl)c2)cc1	35%[activator]	0%
COc1ccc(CNC(=O)C2CCN(c3nnc(-n4c(C)ccc4C)s3)CC2)c(OC)c1	16%	44%[activator]
COc1cccc(-c2ccc(=O)n(CC(=O)N3CCc4ccccc4C3)n2)c1	-16%	-4%
CCn1c(=O)c2cc(C(=O)N(C)c3ccccc3C)sc2c2ccccc21	50%[activator]	8%
COc1cc(C(=O)/C(=C/c2ccncc2)c2nc3ccccc3o2)cc(OC)c1OC	?	?
COC(=O)c1ccc(CNC(=O)Nn2cnc3ccccc32)cc1	?	-5%
COc1ccccc1NC(=O)CN1C(=O)CSc2ccc(S(=O)(=O)N3CCCC3)cc21	40%[activator]	-6%
CCOc1ccc(NC(=O)c2cnn3c2NC(c2cccc(OC)c2)=CC3c2ccccc2)cc1 (stereo unspecified)	68%[activator]	15%
Cc1ccc(-c2nc3sc(CCNS(=O)(=O)c4cc(F)ccc4F)c(C)n3n2)cc1	?	?
CCCCCC(C)N (stereo unspecified)	-5%	19%[11.5 µM]
COc1ccccc1CNC(=O)C(C)n1c(=O)cc(-c2ccccc2)c2c(C)nn(C)c21 (stereo unspecified)	-1%	-12%
CCCNC(=O)c1ccc2c(c1)N=C(C)c1c(C)ccc(C)c1S2	?	?
COc1cc(CNCC(O)c2ccccc2)ccc1Oc1nnnn1-c1ccccc1 (stereo unspecified)	73%[activator]	23%
CCc1nnc(SCC(=O)N(C)CCOc2ccc(Br)cc2)n1C	19%	26%
Cc1ccc(C(=O)COC(=O)c2cc3ccccc3oc2=O)cc1C	-6%	174%[activator]
O=C(CCc1ncc(-c2c(F)cccc2F)o1)NC1CCN(Cc2ccccc2)C1 (stereo unspecified)	-10%	-9%

Six compounds out of the list, arranged by number of heavy atoms, largest number first:
SMILES	2A Renilla	2A firefly
CCOc1ccc(NC(=O)c2cnn3c2NC(c2cccc(OC)c2)=CC3c2ccccc2)cc1 (stereo unspecified)	68%[activator]	15%
COc1ccccc1CNC(=O)C(C)n1c(=O)cc(-c2ccccc2)c2c(C)nn(C)c21 (stereo unspecified)	-1%	-12%
COc1cc(CNCC(O)c2ccccc2)ccc1Oc1nnnn1-c1ccccc1 (stereo unspecified)	73%[activator]	23%
Cc1ccc(C(=O)COC(=O)c2cc3ccccc3oc2=O)cc1C	-6%	174%[activator]
COC(=O)c1ccc(CNC(=O)Nn2cnc3ccccc32)cc1	?	-5%
CCCCCC(C)N (stereo unspecified)	-5%	19%[11.5 µM]

Next part
SMILES	2A Renilla	2A firefly
CCSc1nc2c([nH]c3ccccc32)c(=O)n1-c1cccc(OC)c1	-9%	-3%
Cc1c(NC(=O)CC23CC4CC(CC(C4)C2)C3)cccc1-c1nc2ncccc2o1	61%[activator]	38%[activator]
CCOC(=O)C1CCN(C(=O)c2nn(-c3ccc(C)cc3)c(=O)c3c2c2ccccc2n3C)CC1	-11%	-16%
O=C(CN1CCN(C(=O)c2cc(-c3ccncc3)nc3ccccc23)CC1)N1CCOCC1	30%	37%[activator]
COc1ccc(CC(=O)NC2CC(=O)N(c3cccc(F)c3)C2)cc1OC (stereo unspecified)	6%	1%
Cc1ccc2nc(-c3ccc(NC(=O)C4CC4)cc3)oc2c1	9%	175%[activator]
Cc1ccc(-c2[nH]c3ccccc3c2C=O)cc1	27%	296%[activator]
CCCCNC(=O)c1ccc(Cl)c(Cl)c1	3%	51%[activator]
O=C(Nc1ccc(-c2nc3ccccc3s2)cc1)C1CCN(C(=O)c2cccs2)CC1	-9%	102%[activator]
CSc1cccc(NC(=O)c2ccc(F)cc2F)c1	-3%	17%
Cc1ccc(C(=O)CCC(=O)CCC(=O)O)s1	18%	20%
CCCCN(C)CCC(=O)Nc1cccc(F)c1	-4%	-6%
COCCNC(=O)c1cc(-c2ccccc2Cl)nc2ccccc12	6%	8%
CN1CCCN(C(c2ccccc2)c2ccc(Cl)cc2)CC1 (stereo unspecified)	-9%	-17%[11.5 µM]
CCc1ccccc1NC(=O)c1ccc(F)c(S(=O)(=O)NC2CCCCCC2)c1	202%[activator]	-14%
CC(C)CCn1c(Oc2ccccc2Cl)nc2c1c(=O)n(C)c(=O)n2C	5%	0%
O=C(c1nn(-c2ccccc2)c(=O)c2ccccc12)N(Cc1ccccc1)C1CC1	284%[activator]	13%
COc1ccc(CC(=O)Nc2ccc(-c3nc4ccccc4s3)c(C)c2)cc1	7%	46%[activator]
COc1cccc(CNC(=O)CN2C(=O)CCc3cc(S(=O)(=O)N4CCOCC4)ccc32)c1	-9%	-3%
CCNC(=O)CN1CCN(Cc2coc(-c3ccccc3)n2)CC1	-15%	0%
CCCCCn1nc(C(=O)Nc2cccc(C#N)c2)c2ccccc2c1=O	-4%	0%
CCC(C(=O)OCc1cc(=O)n2nc(C)sc2n1)c1ccccc1 (stereo unspecified)	5%	16%
CC(C)(C)c1ccc(C(=O)NCCc2csc3nc(-c4ccccc4F)nn23)cc1	?	14%
CCOC(=O)C1(C)C=C(Nc2ccc(OC)cc2)C(=O)N1c1ccccc1 (stereo unspecified)	6%	271%[activator]
Cn1c(=O)[nH]c(=O)c2c1nc(N1CCN(Cc3ccc(Cl)cc3)CC1)n2Cc1ccccc1F	-9%	-2%
O=C(CC1N=C2c3ccccc3N=C(SCC(=O)Nc3ccc(F)cc3)N2C1=O)NCc1cccs1 (stereo unspecified)	0%	0%
Cc1cc(C)cc(NC(=O)CN2C(=O)CSc3ccc(S(=O)(=O)N(C)C)cc32)c1	2%	-16%
Cc1ccc(Cn2c3ccccc3c3cnn(CC(=O)N4CCCCCC4)c(=O)c32)cc1	0%	19%
COc1ccc(CCNC(=O)C(=O)Nc2ccccc2F)cc1	6%	-2%
Cc1c(C)c2ccc(OC(C)C(=O)NCCc3ccc(S(N)(=O)=O)cc3)cc2oc1=O (stereo unspecified)	0%	-11%
COc1cc2c(cc1OC)C(c1ccc(F)cc1)N(c1cccc(C#N)c1)C(=O)C2 (stereo unspecified)	-11%	-11%
CCn1cnc2c1c(=O)n(CC(=O)NCC1CCCO1)c(=O)n2Cc1ccccc1 (stereo unspecified)	-8%	-5%
COc1cccc(CNC(=O)CN(c2ccc(C(C)C)cc2)S(=O)(=O)c2c(C)n[nH]c2C)c1	93%[activator]	79%[activator]
CCn1cc(C(=O)N2CCN(c3cccc(Cl)c3)CC2)c2cc(OC)c(OC)cc2c1=O	0%	-14%
COc1cccc(CNc2nc3c(-c4ccccc4)nnn3c3ccccc23)c1	-9%	83%[activator]
Cc1ccc(NC(=O)Cn2nc(C(=O)O)c3ccccc3c2=O)c(Cl)c1	-1%	-3%
Cc1cc(NS(=O)(=O)c2ccc(NC(=O)c3oc4ccc(F)cc4c3C)cc2)nc(C)n1	90%[activator]	16%
O=C(COc1ccccc1Cl)Nc1ccc2oc(-c3ccccc3F)nc2c1	5%&12%	0%&3%
COc1ccc(Cl)c(Cn2c(NCC3CCCO3)nc3c2c(=O)n(C)c(=O)n3C)c1 (stereo unspecified)	0%	3%
COc1cccc(/C=C(/CCC(=O)O)c2nc3ccccc3s2)c1	111%[activator]	108%[activator]
CNc1ccc(Br)cc1C	-5%	-10%
O=C(Cn1cnc2c(nnn2Cc2ccc(F)cc2)c1=O)N1CCCCCC1	7%	10%
CCCc1nc2n(n1)C1(CCCCC1)[C@@H]1CCCC[C@@H]1N2C(=O)CC	7%	24%
CCOc1cccc2cc(-c3nc(-c4ccc(Cl)cc4)c(C)s3)c(=O)oc12	-13%	-22%
CC(C(=O)Nc1ccccc1)n1nc(-c2ccccc2)c2c(c1=O)CCCC2 (stereo unspecified)	120%[activator]	13%
COC(=O)c1ccc(CSc2nnc3ccc4ccccc4n23)cc1	-1%	1%
COc1ccc2c(C)c(CCC(=O)NCc3ccc(C)cc3)c(=O)oc2c1	4%&-10%	11%&-20%
O=C(Cc1ccc(Cl)c(Cl)c1)NCc1ccccn1	1%	27%
Cc1ccc(/C=N/O)o1	3%	-2%
O=C(OCc1ccc([N+](=O)[O-])cc1)C1(c2ccccc2)CC1	8%	3%
COc1ccc(CNC(=O)c2nc(S(=O)(=O)Cc3ccccc3)ncc2Cl)cc1	2%	22µM*
CCC(C)NC(=O)c1sccc1-c1ccccc1 (stereo unspecified)	3%	4%
CCCCN1CCN(c2nc3c(c(=O)[nH]c(=O)n3C)n2Cc2ccccc2)CC1	-4%	-4%
COc1ccc2cc(C(=O)Nc3ccc(Nc4ccccc4)cc3)[nH]c2c1	-3%	5%
COc1ccc(OCc2ccc(-c3nc(C#N)c(N4CCN(c5ccccc5)CC4)o3)o2)cc1	-13%	-5%
COC(=O)CCNC(=O)c1cc(C2CC2)nc2ccccc12	15%	-2%
COc1ccc(-c2ccc(=O)n(CC(=O)N3CCc4ccccc4C3)n2)cc1OC	-12%	0%
CC(C)(C)c1ccc(-c2nc(NC(=O)CSc3ncnc4sc5c(c34)CCCC5)ns2)cc1	-3%	0%
Cc1ccccc1CNC(=O)c1ccc2c(c1)CCCC2	189%[activator]	173%[activator]
Cc1ccc(NC(=O)Cn2nnc3sc(-c4ccccc4)cc3c2=O)cc1Cl	2%	-15%

(more compounds)
SMILES	2A Renilla	2A firefly
C/C(=C/C(=O)NS(=O)(=O)C(C)C)c1ccc(F)cc1	16%	46%[activator]
CCc1ccc(C(=O)c2cn(CC(=O)Nc3cccc(C)c3C)c3nc(C)ccc3c2=O)cc1	-13%	-11%
COc1ccc(OC)c(N2C(=O)CCC2(C)C(=O)NC2CCCC2)c1 (stereo unspecified)	0%	-7%
CC(=O)N1CCOc2cc(S(=O)(=O)NCc3ccccc3Cl)c(Cl)cc21	-38%	0%

Full records, looked up by structure:
Entry for COc1cc(C)cc2oc(=O)c(CC(=O)NCc3ccc(F)cc3)c(C)c12 → 2A Renilla: 48%[activator]; 2A firefly: 0%
Entry for Cc1ccc(CNC(=O)c2cc(S(=O)(=O)N3CCCCC3)cn2C)cc1 → 2A Renilla: 22%; 2A firefly: -3%

Bioassay records: PubChem, National Center for Advancing Translational Sciences (NCATS)

Not all compounds are listed (hit frequency here may not be typical).
